Bioassay records deposited in PubChem by ICCB-Longwood Screening Facility, Harvard Medical School.
UCH37 DUB inh = blocks the human deubiquitinase UCH37; purified proteasome/UCH37, Ub-AMC cleavage fluorescence; inhibition, % (concentration not given with the values); actives 0.33% (n = 330,000);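 active = mean of two replicates above 20%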;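 also: 0% = compound-free wells with enzyme and 100% = wells lacking proteasome; stock transfer was 100 nL into about 20 µL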
Target sequence (Q9Y5K5 whole entry, looked up): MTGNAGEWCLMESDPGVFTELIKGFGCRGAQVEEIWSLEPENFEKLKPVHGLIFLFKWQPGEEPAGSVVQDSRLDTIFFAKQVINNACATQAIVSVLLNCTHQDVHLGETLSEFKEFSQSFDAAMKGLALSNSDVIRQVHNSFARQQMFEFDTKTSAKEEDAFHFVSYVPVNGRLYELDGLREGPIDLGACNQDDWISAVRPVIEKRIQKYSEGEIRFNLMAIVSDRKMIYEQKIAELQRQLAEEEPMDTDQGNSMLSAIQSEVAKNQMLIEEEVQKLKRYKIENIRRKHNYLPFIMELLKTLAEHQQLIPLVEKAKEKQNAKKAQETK
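Reagent: Ub-AMC substrate; assay system: Proteasome-associated human UCH37 deubiquitinase; controls: no-proteasome and no-compound wells; read-out: % inhibition of Ub-AMC cleavage fluorescence; timing: 30 min preincubation with enzyme, 25 min cleavage at room temperature; signal: AMC fluorescence from Ub-AMC cleavage, excitation 355 nm, emission 460 nm; buffer or medium: Tris-HCl pH 7.4 plus ovalbumin, ATP-MgCl2, DTT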
E coli growth = E. coli growth inhibition; Escherichia coli growth, OD600, 23 h; active compounds read low; OD600 absorbance (concentration not given with the values); actives 0.21% (n = 330,000);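 active = OD600 absorbance below the run mean of sample wells minus 3.6 SD, in any replicate, cut at about 0.56 in these data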;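 also: stock transfer was 300 nL into about 60 µL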
* = called active by the depositor.

SMILES | UCH37 DUB inh | E coli growth
O=S(=O)(c1cccc(-c2csc(NN=Cc3ccco3)n2)c1)N1CCOCC1 | 1.5 | 0.712
Cc1ccc(C(=O)ON=Cc2c(C(F)(F)F)nn(C)c2Sc2ccc(Cl)cc2)cc1 | -0.6 | 0.768
Nc1cnnc(NN=Cc2ccccc2)c1Cl | 5.3 | 0.703
CC(=NNC(=O)CNC(=O)c1ccccc1F)c1ccco1 | 1.6 | 0.663
CCOc1cc(C=NNc2nc3ccccc3[nH]2)cc(Br)c1OCC(=O)N(C)C | -6.7 | 0.701
Cc1cc(C=NNC(N)=O)c(C)n1-c1ccc(F)cc1 | 2.8 | 0.724
COC(=O)C1=C(C)N=c2sc(=Cc3cccs3)c(=O)n2C1c1ccc(F)cc1 (stereo not given) | 6.2 | 0.731
C=CCNC(=S)NN=Cc1ccc(OCc2ccccc2)cc1 | 0.3 | 0.693
O=C(CC(=O)NN=Cc1ccccc1[N+](=O)[O-])NCCc1ccccc1 | 5.5 | 0.683
COc1ccc(COC(=O)NN=C(C)CC(=O)Nc2c(C)cc(C)cc2C)cc1 | 4.2 | 0.714
COc1cccc(C=Nc2oc(-c3ccccc3)cc2C#N)c1O | -3.4 | 0.64
CCOC(=O)c1c(N=Cc2cc([N+](=O)[O-])ccc2O)sc(C)c1C | 0.1 | 0.636
COc1ccc(C=NNC(=O)c2cccc(OC(F)(F)C(F)F)c2)c(OC)c1OC | -2.2 | 0.678
Cc1ccc(NC(=O)CCC(=O)NN=Cc2coc3ccccc3c2=O)cc1 | -4.5 | 0.671
CC(Cn1nc([N+](=O)[O-])cc1C)=NNC(=O)c1cccc(Br)c1 | 1.8 | 0.758
CC(C)(C)C(=O)C=c1[nH]c(=O)c(=Cc2ccc(C#N)cc2)s1 | 3.9 | 0.703
Cc1cc(C(=O)c2cnc(N=CN(C)C)s2)cc(C)c1O | 3.7 | 0.716
COc1ccc(C=NN2CCOCC2)cc1OCc1ccccc1 | 1.1 | 0.691
CS(=O)(=O)N(CC(=O)NN=Cc1ccccc1C(=O)O)c1cccc(Cl)c1Cl | 3.1 | 0.679
COc1ccc(OC)c(/C=C(\NC(=O)c2ccccc2)C(=O)NN=Cc2ccc(C)s2)c1 | -31.5 | 0.728
COc1ccc(C=NNC(=O)CCC(=O)Nc2ccc(F)cc2)c(OC)c1 | 3.9 | 0.631
O=C(NN=Cc1cccs1)c1ccccc1-n1cccc1 | 5.1 | 0.647
Nc1nnnn1N=Cc1cccc(Oc2ccccc2)c1 | 1.2 | 0.676
Cc1nccn1CC(=O)NN=Cc1cc(Br)cs1 | 2.7 | 0.678
Cc1ccc(N=C2C(=S)N(c3ccc(C)cc3)C(=N)N2N=Cc2ccc(Cl)cc2)cc1 | 3.9 | 0.669
O=C(NN=Cc1cccnc1)c1cccc(Cl)c1 | -0.9 | 0.668
CSC(=NNC(N)=O)c1ccccc1 | 6.0 | 0.658
COc1ccccc1C=NOC(=O)c1ccc(F)cc1 | 2.0 | 0.663
CC(C=NNC(=O)c1ccc(CN2c3cccc4cccc(c34)S2(=O)=O)cc1)c1ccccc1 (stereo not given) | -90.7 | 0.719
NC(=O)NC(=O)CC1S/C(=N/N=C2CSC(=O)N2)NC1=O (stereo not given) | 2.5 | 0.719
O=c1c2ccccc2nc(COc2ccccc2)n1N=Cc1cn[nH]c1-c1ccccc1 | 1.6 | 0.733
Cc1occc1C(=O)NN=Cc1c[nH]c2ccccc12 | 8.8 | 0.72
Cc1cc(C(=O)NN=Cc2cc(N=Nc3ccccc3)ccc2O)n[nH]1 | 12.8 | 0.723
COc1ccc(C=Nn2cnc3c(sc(=S)n3-c3ccccc3)c2=O)cc1 | 2.6 | 0.707
COc1ccccc1N1CCN(CC(O)=C(C#N)c2nc(-c3ccccc3)cs2)CC1 | 3.1 | 0.672
O=C(NN=Cc1cccc(OC(=O)c2cccc(Br)c2)c1)c1ccncc1 | 3.4 | 0.671
Cc1cccc(NC(=S)NN=C(c2ccccc2)C(C)C)c1 | -0.1 | 0.657
O=C(NN=Cc1ccncc1)NC1CCCCC1 | 2.4 | 0.646
CCOc1cc(C=NNc2ccccc2Cl)ccc1OCC(=O)O | 7.0 | 0.715
O=C(NN=Cc1cc2ccccc2nc1Cl)/C(=C/c1cccs1)NC(=O)c1ccccc1 | -5.4 | 0.739
Cc1ccc(C=NNC(=O)Cn2nc(C)c([N+](=O)[O-])c2C)o1 | 0.7 | 0.667
COC1=CC(=O)C(O)=C(CCCCCCCC=CCCCCCCCC2=C(O)C(=O)C=C(OC)C2=O)C1=O | 14.4 | 0.639
COCCNC(=O)CC(C)=NNC(=O)C(=O)NC1CCCCC1 | -0.6 | 0.717
Cc1cc(C)n2nc(C(=O)NN=Cc3ccc(Cl)cc3)nc2n1 | 2.3 | 0.667
Cc1ccc2nc(C)cc(NN=Cc3ccccc3O)c2c1 | -29.4 | 0.693

7 entries drawn at random from those above:
SMILES | UCH37 DUB inh | E coli growth
Cc1ccc2nc(C)cc(NN=Cc3ccccc3O)c2c1 | -29.4 | 0.693
O=C(NN=Cc1cccc(OC(=O)c2cccc(Br)c2)c1)c1ccncc1 | 3.4 | 0.671
CCOc1cc(C=NNc2ccccc2Cl)ccc1OCC(=O)O | 7.0 | 0.715
COc1ccc(C=Nn2cnc3c(sc(=S)n3-c3ccccc3)c2=O)cc1 | 2.6 | 0.707
O=C(NN=Cc1ccncc1)NC1CCCCC1 | 2.4 | 0.646
COC1=CC(=O)C(O)=C(CCCCCCCC=CCCCCCCCC2=C(O)C(=O)C=C(OC)C2=O)C1=O | 14.4 | 0.639
Cc1cccc(NC(=S)NN=C(c2ccccc2)C(C)C)c1 | -0.1 | 0.657

Entries of single compounds, quoted from the list.
`Cc1ccc(C=NNC(=O)Cn2nc(C)c([N+](=O)[O-])c2C)o1` reads UCH37 DUB inh: 0.7; E coli growth: 0.667
`COc1ccc(C=Nn2cnc3c(sc(=S)n3-c3ccccc3)c2=O)cc1` reads UCH37 DUB inh: 2.6; E coli growth: 0.707
`Cc1cc(C(=O)NN=Cc2cc(N=Nc3ccccc3)ccc2O)n[nH]1` reads UCH37 DUB inh: 12.8; E coli growth: 0.723

Next results follow.
SMILES | UCH37 DUB inh | E coli growth
CCOc1cc(C=NNC(=O)C(OC)c2ccccc2)ccc1O (stereo not given) | -5.0 | 0.657
Cc1[nH]c2ccccc2c1C=NNC(=O)CNC(=O)c1ccco1 | 9.3 | 0.662
O=C(NCc1ccccn1)C(=O)NN=Cc1ccc2c(c1)OCO2 | 12.7 | 0.654
Oc1ccccc1C=NNc1nccnc1Cl | 5.6 | 0.685
CCc1cc(CC)c(C=NNC(N)=O)c(CC)c1 | 4.1 | 0.698
COc1ccc(C=NN=C(N)c2nonc2N)cc1OC | 10.9 | 0.714
NC(=NOC(=O)CCC1CCCCC1)c1cccc([N+](=O)[O-])c1 | 6.4 | 0.683
COc1ccc(O)c(C=Nc2sc(C)c(C)c2C#N)c1 | 6.5 | 0.716
O=C(CSCc1cccc(Br)c1)NN=Cc1ccc2c(c1)OCO2 | 2.6 | 0.678
O=C(NN=Cc1ccc(OC(=O)c2ccco2)cc1)c1ccc[n+]([O-])c1 | 8.2 | 0.683
CC(=NNC(=O)c1c[nH]c2ccccc12)c1ccco1 | 5.1 | 0.654
CNC(=O)N(O)C1N(N=Cc2ccc(SC)cc2)C(=S)SC1(C)C (stereo not given) | 3.7 | 0.669
COc1ccc(C=NNc2nc(C)c([N+](=O)[O-])c(N(C)c3ccccc3)n2)cc1OC | 4.8 | 0.711
O=C(NN=Cc1cc([N+](=O)[O-])ccc1O)/C(=C\c1cccs1)NC(=O)c1ccccc1 | -0.1 | 0.672
O=C(NN=Cc1cccnc1)c1ccc(S(=O)(=O)N2CCCCCC2)cc1 | -10.9 | 0.72
CC(=NNC(=O)c1ccncc1)c1ccc(NC(=O)c2ccc(Cl)cc2Cl)cc1 | 0.6 | 0.701
O=C(NN=Cc1cccc([N+](=O)[O-])c1)c1ccc(COc2ccccc2-c2ccccc2)cc1 | 5.6 | 0.726
NC(=NS(=O)(=O)c1ccccc1)c1cccc([N+](=O)[O-])c1 | 1.8 | 0.586
NC(CC(=O)Nc1cc(C(F)(F)F)ccc1Cl)=NO | 1.4 | 0.684
Cn1c(N=Cc2cccs2)nc2ccccc21 | 4.2 | 0.643
COc1cccc(C=NNC(=O)CNC(=O)/C=C\c2ccccc2)c1O | 4.6 | 0.672
COc1cccc(C=Nn2c(=S)n(C)c3cc(C)c(C)cc32)c1OC | 2.4 | 0.685
Nc1nnn(CC(=O)NN=Cc2ccc(Cl)cc2Cl)n1 | 1.5 | 0.629
CCc1ccc(OCC(=O)NN=C(C)c2ccc(O)cc2O)cc1 | 17.4 | 0.684
Cc1c(C(=O)NN=Cc2ccccn2)nnn1-c1nonc1N | 6.4 | 0.652
Cc1c([N+](=O)[O-])c(CC=NO)nn1C | 1.0 | 0.652
CC(=NNC(=O)CN1CCN(Cc2ccccc2Cl)CC1)c1cccs1 | 8.9 | 0.615
Cc1ccccc1OCC(=O)NN=Cc1cccn1C | 2.6 | 0.727
CN(CCNC(=O)c1ccc(C=NO)nc1)Cc1ccccc1 | 1.7 | 0.662
Nc1nonc1-n1nnc(C(=O)NN=Cc2cccs2)c1CSc1ccccc1 | -1.6 | 0.689
CC(=O)C(=NNc1ccc(C)cc1)N1CCOCC1 | 10.5 | 0.655
Oc1ccc2ccccc2c1C=Nc1nc2c(s1)CCCC2 | 42.2* | 0.636
COc1ccc(Cc2nnc(NN=C(C)c3ccccc3)[nH]c2=O)cc1OC | 3.2 | 0.657
Cc1cc2c(C)nc(NN=Cc3ccc(F)cc3)nc2o1 | -11.9 | 0.678
O=[N+]([O-])c1ccc(C=Nn2cnc3ccccc32)s1 | 2.5 | 0.626
CN(C)c1ccc(C=NNC(=O)CCCO)cc1 | -306.5 | 0.672
COc1ccc(C=NNC(=O)c2ccccc2O)cc1CN1CCOCC1 | 8.7 | 0.689
CC(=NO)c1ccc2c(c1)CC(C)O2 (stereo not given) | 4.0 | 0.667
O=[N+]([O-])c1cccc(C=NN2CCN(Cc3ccccc3Cl)CC2)c1 | 3.3 | 0.721
COc1ccc(Br)cc1C=NN1CCN(Cc2ccccc2)CC1 | 0.9 | 0.667
CCCCCCCCCC(=O)NN=C(C)c1cccnc1 | 6.3 | 0.693
CCCc1noc2c1C(=NO)CC(CC(C)SCC)C2 (stereo not given) | 1.1 | 0.677
CC(=NNc1nc2ccccc2[nH]1)c1ccc2c(c1)OCO2 | 4.1 | 0.564
CCCCNC(=O)N(O)C1N(N=Cc2ccccc2F)C(=S)SC1(C)C (stereo not given) | 5.7 | 0.692
CC(=NN1CCN(c2ccc(Cl)cc2)CC1)c1cccc([N+](=O)[O-])c1 | 3.4 | 0.711
O=C(NN=Cc1nn(-c2ccccc2)cc1-c1ccc(Cl)cc1)c1ccncc1 | -76.6 | 0.699
O=[N+]([O-])c1ccc(C=NNc2nc(N3CCCCCC3)nc(N3CCCCCC3)n2)o1 | 4.6 | 0.696
CC(=NO)C1(C)N(O)C(C)(C)C(c2ccco2)=[N+]1[O-] (stereo not given) | -2.6 | 0.722
O=C(NN=Cc1ccccc1F)c1cccc(NC(=O)c2ccccc2Cl)c1 | 1.6 | 0.637
COc1ccc(C=N/N=C2/NC(=O)C(c3ccccc3)(c3ccccc3)S2)cc1 | 9.3 | 0.677
CC(=NNS(C)(=O)=O)c1ccccc1 | 3.3 | 0.703
Cc1cccn2c(=O)c(C=NO)c(Nc3ccccc3F)nc12 | 3.9 | 0.67
COCc1c(C(=O)NN=C(C)c2cccs2)nnn1-c1nonc1N | -49.2 | 0.698
COc1cc(C=NNC(=O)C[n+]2ccccc2)cc(OC)c1OC | 3.9 | 0.725
CN(C)C=NC(=S)Nc1ccc(Br)cc1F | 2.2 | 0.724
Cc1ccc(C=NNC(=O)C2=NNC(c3ccccc3)(c3ccccc3)C2)c(O)c1 | 1.2 | 0.732
Cc1nc2ccccc2c(=O)n1N=Cc1ccccc1OC(F)F | 6.2 | 0.682
COCCNC(=S)NN=Cc1ccc(OCc2ccc(C(=O)OC)cc2)cc1 | 5.5 | 0.665
O=C(CNc1ccc2ccccc2c1)NN=Cc1ccc([N+](=O)[O-])o1 | 3.3 | 0.638
CC(=O)NC(=NOCc1ccccc1Cl)c1nonc1NC(C)=O | 2.6 | 0.617

The results go on.
SMILES | UCH37 DUB inh | E coli growth
CCCc1noc2c1C(=NO)CCC2 | 2.9 | 0.699
Cc1ccc(C=NNC(=O)c2nnn(-c3nonc3N)c2C)o1 | -1.8 | 0.645
CC(Cc1ccccc1)=NNC(=O)CNC(=O)c1ccccc1Br | -1.6 | 0.688
Cn1cccc1-c1cc(C(=O)NN=Cc2ccc(Cl)cc2)[nH]n1 | 0.1 | 0.634
CC(=NNC(=O)c1ccncc1)c1cc2ccc(O)cc2oc1=O | -66.2 | 0.661
O=C(NCCCN1CCOCC1)C(=O)NN=Cc1cccc2ccccc12 | -0.8 | 0.72
Cc1ccc(C=Nn2nnnc2N)cc1 | 5.5 | 0.692
C(=NNc1nc(-c2ccccc2)cc(-c2ccccc2)n1)c1cccnc1 | -1.0 | 0.716
CC(=O)Nc1ccc(C(=O)NN=Cc2ccncc2)cc1 | 5.5 | 0.692

A portion of the library (hit frequency here may not be typical).
